nsP2pro primary = Primary qHTS for inhibitors of NSP2Pro chikungunya virus (CHIKV) | Potency, µM (series often up to 24.9 µM), for the others: at the highest dose activity change, negative = inhibition, usual class: inhibitors | FRET peptide cleavage, nsP2pro, fluorescence 1 h | AID 1964107, 2024 | actives 1.1% (n = 31,000) | Polyprotein P1234 (Chikungunya virus (strain S27-African prototype)), Q8JUX6; active means well fitted inhibition curve with a large enough effect; inconclusive means small, poorly fitted or top-dose-only effect; inactive means no such curve, though single readings can be large or run the other way; further: nearly all actives have a fitted effect of over 60% in size; a reference inhibitor and vehicle were the controls
* = called active by the depositor; i = inactive; u = inconclusive; & = joins results of further samples; [ ] = another dose, or the depositor's remark. On the % scale 0 is the no-effect control and ±100 the full control effect; potency means the concentration at half of the fitted maximal effect. Not all compounds are listed. The share of hits here may be higher or lower than overall.

SMILES	nsP2pro primary
COc1ccc(-n2c(=O)[nH]c3cccnc32)cc1OC	0%[39.2 µM]
C=CCN1CC[C@]2(C)c3cc(O)ccc3CC1[C@@H]2C	3%
Cc1sc2cc(C(=O)NC(C)C)[nH]c2c1CN1CCCCC1	i
CC(C)C[C@@H](C(=O)N[C@@H](Cc1ccc(OCc2ccccc2)cc1)C(=O)NC(C)(C)C)N(C)Cc1ccc(C(C)(C)C)cc1	33%
CCc1ccc(NC(=O)c2cnn3c(C)cc(C)nc23)cc1	-6%
Cc1ccc2oc(C(=O)Nc3ccc(S(=O)(=O)N(C)c4ccccc4)cc3)cc(=O)c2c1	-13%
CCC(=O)Oc1ccc2c(c1)CC[C@@H]1[C@H]2CC[C@]2(C)[C@@H](OC(=O)CC)CC[C@@H]12	-3%
C[C@]12CC[C@H](OS(=O)(=O)O)CC1=CC[C@@H]1[C@@H]2CC[C@]2(C)C(=O)CC[C@@H]12	1%
CCOc1ccccc1NC(=O)CSc1nc2c(oc3ccccc32)c(=O)n1C(C)C	-11%
NC(=O)Cc1cccc(C(=O)c2ccccc2)c1N	8%
CCCc1nccn1S(=O)(=O)c1cc(Br)ccc1OC	u
COc1ccccc1CNC(=O)C(=O)NCC(c1ccc2c(c1)OCO2)N1CCOCC1 (configuration not stated)	-22%
O=S1(=O)Nc2c(ccc3cccnc23)-c2ccccc21	i
COc1cc(C)c2c(c1C)C[C@H](C(C)C(=O)NCc1ccco1)CC2 (some centres not stated)	7.9µM*
CCC1CCCCN1CCCNC(=O)c1ccc2c(c1)N(Cc1cccc(Cl)c1)C(=O)c1ccccc1S2(=O)=O (configuration not stated)	93%[activator]
CNC(=O)[C@@H]1CN(S(=O)(=O)c2cccnc2)C[C@H]1C1CCN(C)CC1	i
Cc1ccc(N2C(=O)c3ccccc3C2=O)c(C)c1	0%
CN1CCc2cc(Nc3ncc(C4CC4)c(NCCCNC(=O)C4CCC4)n3)ccc2C1	-8%
COc1cc(C)c(C=CC(C)=CC=CC(C)=CC(=O)O)c(C)c1C	36%[activator]
CC(C)Oc1ccc(CCNC(=O)c2cc3sccc3n2Cc2ccccc2)cc1OC(C)C	-21%
CC(C)N1C(=O)C2(CCCC2)C1C(=O)Nc1ccncc1 (configuration not stated)	-7%
CC1CCc2c(sc3nc(-c4cc5ccccc5oc4=O)nc(Cl)c23)C1 (configuration not stated)	u
COc1cc(-c2cc3n(C)c(C)c(CCC(=O)NCc4ccccc4)c(=O)n3n2)cc(OC)c1OC	-21%
O=S(=O)(c1cccc(F)c1)N1CCN(S(=O)(=O)c2ccc3c(c2)OCCO3)CC1	-6%
COc1ccc(S(=O)(=O)Cc2ccc(C(=O)N3CCN(c4cc(C)ccc4C)CC3)o2)cc1	-10%
Cc1cc(O)c2c(O)c3c(O)cccc3cc2c1	14%
CC(Sc1nc2c([nH]c3ccccc32)c(=O)n1-c1ccccc1)c1ccccc1 (configuration not stated)	-10%
N=c1c2c(ccn1Cc1ccccc1)Oc1ccc3ccccc3c1C2c1ccccc1 (configuration not stated)	-13%
Cn1nnnc1Sc1ncnc2scc(-c3cnc(N)nc3)c12	1%
CCCCC1(COC(=O)CCC(=O)O)C(=O)N(c2ccccc2)N(c2ccccc2)C1=O	-3%

Overlap with the part before: 3 entries, then new ones.
SMILES	nsP2pro primary
N=c1c2c(ccn1Cc1ccccc1)Oc1ccc3ccccc3c1C2c1ccccc1 (configuration not stated)	-13%
Cn1nnnc1Sc1ncnc2scc(-c3cnc(N)nc3)c12	1%
CCCCC1(COC(=O)CCC(=O)O)C(=O)N(c2ccccc2)N(c2ccccc2)C1=O	-3%
COc1cc2c(cc1OC)N1C(=O)C[C@]34C=CCN5CC[C@@H]2[C@@H](CC3)[C@]514	4%
COCC1OC(n2cnc3c(=O)[nH]cnc32)C(O)C1O (configuration not stated)	u
Fc1ccc2[nH]c(-c3cccs3)cc2c1	2%
COC(=O)CCNC(=O)C1CN(S(=O)(=O)c2cccs2)CC12CCCCC2 (configuration not stated)	-5%
COc1ccc(-n2cc(-c3ccc4c(c3)OCO4)n(CC(=O)Nc3cccc(C)c3C)c2=O)c(OC)c1	-27%
Nc1cc(Cl)c(NC2=NCCN2)c(Cl)c1	-8%
C=CC(C)(C)c1[nH]c2ccccc2c1C[C@@H]1NC(=O)[C@H](Cc2c[nH]c3ccccc23)NC1=O	-9%[10 µM]
Cn1ncc(N2CCCC(CC(=O)O)C2)cc1=O (configuration not stated)	-1%
Cc1cccc(CN2CCN(C(c3ccccc3)c3ccc(Cl)cc3)CC2)c1 (configuration not stated)	-15%&9%
COc1ccc(CCNC(=O)CSc2ncc3c(n2)-c2cc(Cl)ccc2N(Cc2ccccc2)S3(=O)=O)cc1OC	-24%
Cc1cccc(N2CCN(S(=O)(=O)c3ccc4oc(=O)c5ncn(C)c5c4c3)CC2)c1C	-14%
CCOc1ccc(N(CC)C(=O)CCc2nc(-c3ccccc3F)no2)cc1	-3%
COc1ccc(Nc2c(-c3ccco3)nc3cccc(C)n23)cc1	-16%
C=C[C@]1(C)C[C@H](O)[C@@H]2[C@H](OC(=O)[C@@H]2C)C1/C(C)=C/O[C@@H]1O[C@H](CO)[C@@H](O)[C@H](O)[C@H]1O (some centres not stated)	-6%[10 µM]
Nc1nc2c(c(N3CCNCC3)n1)CCC1=C2[C@@H]2CCCC[C@@H]2O1	9%
CN(C(=O)c1ccc2c(c1)N(Cc1cccc(Cl)c1)C(=O)c1ccccc1S2(=O)=O)C1CCCCC1	-17%
O=C1c2ccccc2NC(c2ccc(-c3cccc(Cl)c3)o2)N1O (configuration not stated)	-18%
CC(=O)N1CCCN(Cc2ccc3c(c2)OCO3)c2ccccc21	u
CC(=O)NCc1c(I)c(NC(C)=O)c(I)c(C(=O)O)c1I	17%
O=[S+]([O-])(c1ccc2nsnc2c1)N1CCN([S+](=O)([O-])c2c(F)cccc2F)CC1	0%
COC(=O)N[C@H](C(=O)N1CCC[C@H]1C(=O)Nc1ccc([C@@H]2CC[C@@H](c3ccc(NC(=O)[C@@H]4CCCN4C(=O)[C@@H](NC(=O)OC)C(C)C)cc3)N2c2ccc(C(C)(C)C)cc2)cc1)C(C)C	-19%&13%
Cc1ccccc1NC(=O)c1ccc2c(c1)c(C)c(C)n2Cc1ccccc1	-7%
Cn1c(=O)c2cc(C(=O)NC3CCCCCC3)sc2c2ccccc21	-24%
CN(C)CC(c1ccc(O)cc1)C1(O)CCCCC1 (configuration not stated)	-7%&-17%
COc1ccc(-c2cc(C(F)(F)F)nc(NCc3ccccc3)n2)cc1	-15%
COc1ccc(-c2nc(-c3ccccc3)c(NCc3ccccc3)o2)cc1	7%[5.1 µM]
CCN(Cc1ccccc1)Cc1c(O)ccc2c(=O)c(-c3ccc(Cl)cc3)c(C(F)(F)F)oc12	-17%
O=C(O)/C=C\C(=O)O	18%
CCOC(=O)Cn1c(=O)oc2cc(S(=O)(=O)NCc3ccc(F)cc3)ccc21	-3%
CCN1CCCC1Cn1c(-c2ccccc2)nc2c(NC3CCCCC3)nc(C)nc21 (configuration not stated)	0%
CC1=NS(=O)(=O)N(C)C=C1C(=O)OCc1nc(-c2cccc(C)c2)no1	i
N#Cc1cccc(-c2ccnc(N[C@H]3CO[C@H]4[C@@H]3OC[C@H]4OC(=O)NC3CCCCC3)n2)c1	i
CN1N=C2CCN(C(=O)[C@H](COCc3ccccc3)NC(=O)C(C)(C)N)C[C@]2(Cc2ccccc2)C1=O	-3%
CCOC(=O)c1c(C)oc2ccc(N(C(=O)c3ccncc3)S(=O)(=O)c3ccc(F)cc3C)cc12	-12%
COc1ccc(CNC(=O)c2cnc3c(c2)N(C(=O)CCc2ccccc2)CCC3)cc1OC	-4%
CC(=O)/C=C/[C@H]1[C@](C)(O)[C@@H](O)[C@H](O)C2C(C)(C)CCC[C@@]21C (some centres not stated)	-6%
CC(=O)NC(c1ccco1)c1cc(Cl)c2ccc(Cl)nc2c1O (configuration not stated)	u
NC(=O)c1nc(Nc2ccccc2)sc1NC(=O)C1CCCCC1	-16%
Cc1cccc(CNc2ncnc3ccc(-c4ccoc4)cc23)c1	i
Cc1nc(-c2ccccc2)sc1CCNC(=O)C(=O)Nc1ccc2c(c1)OCCO2	-13%
CCOC(=O)CSc1nc2c(sc3ccccc32)c(=O)n1CCCN1CCCC1	4%
Nc1nc(N)c2nc(-c3ccccc3)c(N)nc2n1	-10%&-1%
O=c1cc(-c2ccccc2)oc2cc(O)c(O)c(O)c12	-15%
O=C(c1cc[n+]([O-])cc1)N1CCC2(CCCN(CCC3CCCCC3)C2)C1 (configuration not stated)	0%
C[C@H]1C[C@H]2[C@@H]3CCC4=CC(=O)C=C[C@]4(C)[C@@]3(Cl)[C@@H](O)C[C@]2(C)[C@@]1(O)C(=O)CO	11%
Cn1cccc1C(=O)NC1CCN(C(=O)N2CC3CC(C2)[C@H]2CCCC(=O)N2C3)CC1 (some centres not stated)	i
COc1ccc(Cc2nc3ccc(C(=O)NCc4ccccc4Cl)cc3o2)cc1	-16%
CC(=O)N1CCN(c2ccc(NCc3ccc(-c4ccc(Br)cc4)o3)cc2)CC1	i
CC(N)=O	-25%
COc1ccc(C2Nc3ccccc3C(=O)N2Cc2ccccc2C)cc1COc1ccc(NC(C)=O)cc1 (configuration not stated)	-3%
CCn1c(CN2CCN(c3nc4ccccc4s3)CC2)nnc1C1CC(N)C1 (configuration not stated)	i
Cc1nc(N2CCCCCC2)ncc1C(=O)O	i
C[C@]12C=CC(=O)C=C1CCC1C2[C@@H](O)C[C@@]2(C)C1CC[C@]2(O)C(=O)COC(=O)CCC(=O)O (some centres not stated)	18%
CCCC1=Nc2cc(C(=O)NCCCN3CCCCC3CC)ccc2Sc2ccc(C)cc21 (configuration not stated)	i
CCOC(=O)C1CCCN(C(=O)c2cc3c(=O)n(C)c4ccccc4c3s2)C1 (configuration not stated)	-9%
O=C(NC1CCCCC1)N1C[C@@H]2C[C@H](C1)c1c(-c3cncnc3)ccc(=O)n1C2	-11%[39.2 µM]
O=C(Nc1nnc(-c2ccncc2)s1)Nc1cc(C(F)(F)F)ccc1F	i
COC(=O)c1ccc(O)c2ncc(N3CC[C@H](N)C3)cc12	i
COc1cccc(-c2nnc3n(Cc4ccc(F)cc4)c(=O)c4ccccc4n23)c1	-25%
Cc1nnc2n1CCC(N(C)C(=O)CCc1ccccc1)CC2 (configuration not stated)	3%

Random excerpt: three records from the list, in no set order.
SMILES	nsP2pro primary
COC(=O)c1ccc(O)c2ncc(N3CC[C@H](N)C3)cc12	i
COc1ccc(Cc2nc3ccc(C(=O)NCc4ccccc4Cl)cc3o2)cc1	-16%
CCOC(=O)c1c(C)oc2ccc(N(C(=O)c3ccncc3)S(=O)(=O)c3ccc(F)cc3C)cc12	-12%

Next section:
SMILES	nsP2pro primary
Cn1nccc1CN1CCC2(C1)C(=O)Nc1ccccc12 (configuration not stated)	-4%[39.2 µM]
Cc1c(C(=O)N(Cc2ccco2)Cc2ccccc2Cl)oc2ccc(F)cc12	u
COc1cc(CNC(=O)CCCC/C=C/C(C)C)ccc1O	-6%&4%
CC(=O)N[C@@H]([C@@H](O)[C@H](O)[C@H](O)CO)[C@@H](O)CC(=O)C(=O)O	-9%
CCOCOC[C@H](C[C@H](C)C(=O)NO)NC(=O)c1ccc(Oc2ccccc2)cc1	-10%
CC(C)c1nccn1CCCNC(=O)c1ccc(-c2cccc(F)c2)nc1	i
O=C(NCC1CCCCC1)c1cc(-c2cc(Cl)cc(Cl)c2)c2nncn2n1	i
OCCC1CN(c2nccc(-c3ccccn3)n2)CCN1Cc1ccoc1 (configuration not stated)	u
CCC(CC)c1cc([C@H]2CN3CC[C@H]2C[C@@H]3CO)nc(-c2ccncc2)n1	16%[39.2 µM]
Cc1nnc(C[C@@H]2C=C(c3ccc(Cl)cc3)c3ccccc3-n3c(C)nnc32)o1	-9%
CCN1CCN(c2c(S(=O)(=O)c3ccc(C)c(C)c3)cnc3cc(OC)c(OC)cc23)CC1	15%
Cc1ccc(CNC(=O)c2sc3nc(-c4ccccc4)cn3c2C)cc1	-24%
O=C(COc1ccc(Cl)cc1)Nc1ccc(-c2nc3cc(Cl)ccc3o2)c(O)c1	0%
COCc1nnc2n1CCC(NC(=O)Cn1nc(C(F)(F)F)cc1C)CC2 (configuration not stated)	-6%
Cn1nc(C2CCN(C(=O)NCc3ccccc3)CC2)c2c1CCOC2	-4%
O=[S+]1([O-])NC2(CCN(Cc3ccc(F)cc3)CC2)CNc2ccccc21	-10%
C=C(CO[C@@H]1O[C@H](CO[C@@H]2OC[C@](O)(CO)[C@H]2O)[C@@H](O)[C@H](O)[C@H]1O)C1Cc2cc(C(C)=O)ccc2O1 (some centres not stated)	12%[10 µM]
COc1ccccc1-c1c(C)nn2c(N3CCN(c4cccc(Cl)c4)CC3)cc(C)nc12	-6%
CCOC(=O)c1c(C)oc2ncnc(NCCc3ccccc3)c12	-1%
Cc1cc(NC(=O)CN(C)S(=O)(=O)c2ccc3c(c2)CCC(=O)N3)ccc1Br	-11%
OC[C@@H]1CNC[C@H]1c1nc(-c2ccncc2)no1	3%
O=C(O)Cn1c(-c2cccs2)cc2cc(Cl)ccc21	-6%
Cc1ccc(-c2cc(C(=O)NCc3ccc(S(C)(=O)=O)cc3)c3ccccc3n2)cc1C	-6%

Compound activity: PubChem BioAssay, National Center for Advancing Translational Sciences (NCATS)
